High-throughput results as filed in PubChem BioAssay.
Calb FLC: C. albicans growth modulation with fluconazole; actives 0.57% (n = 300,000); growth inhibition, % (concentration not given with the values); C. albicans CaCi-2 (fluconazole-resistant clinical isolate) + fluconazole, Alamar Blue growth, 48 h; AID 1979;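 active = most replicates above 75%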;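 also: all wells also contain fluconazole at 8 µg/ml as a sub-toxic cotreatment; 0% = median of DMSO wells and 100% = median of geldanamycin control wells; wells of about 8 µL received 7.5 nL stock; the first replicate is given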
Beta cell apopt: beta cell apoptosis inhibition | INS-1E cytokine-induced death, ATP luminescence, 48 h; percent of positive-control rescue, neutral wells zero | protection from apoptosis, % (test concentration not listed) | actives 0.8% (n = 300,000);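 active = all replicates at 75% or more, or half of them and the mean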;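 also: 0% = cytokine-treated negative control wells and 100% = positive control rescue; higher means more ATP so stronger rescue from cytokine killing; wells of about 40 µL received 100 nL stock; the first replicate is given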
B2AR ag: human beta-2 adrenergic receptor agonism by FAP; P07550; Am2.2-beta2AR cells, FAP receptor internalization, flow cytometry; reference of the scale not given here; response, % (no concentration beside the values); actives 0.43% (n = 340,000); AID 504454;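 active = response above a set limit, near 3 SD of response in nonfluorescent compounds, cut at about 42% in these data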;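 also: stock transfer was 100 nL into about 11 µL; a reference agonist was the positive control; negative values mostly stem from fluorescent compounds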
Target sequence (P07550 whole entry, looked up): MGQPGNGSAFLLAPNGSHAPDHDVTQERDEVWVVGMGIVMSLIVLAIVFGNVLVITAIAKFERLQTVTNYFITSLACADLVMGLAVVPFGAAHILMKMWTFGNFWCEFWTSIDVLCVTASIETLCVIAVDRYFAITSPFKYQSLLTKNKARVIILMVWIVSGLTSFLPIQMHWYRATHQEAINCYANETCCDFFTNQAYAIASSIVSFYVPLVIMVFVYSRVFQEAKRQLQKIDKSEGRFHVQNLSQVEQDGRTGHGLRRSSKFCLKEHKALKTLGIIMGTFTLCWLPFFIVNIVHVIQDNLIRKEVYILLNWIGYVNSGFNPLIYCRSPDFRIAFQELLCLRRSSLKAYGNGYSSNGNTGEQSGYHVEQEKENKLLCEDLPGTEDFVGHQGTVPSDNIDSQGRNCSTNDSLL
Bfl-1 A1 inh: inhibitors of the anti-apoptotic protein A1, read as caspase activation. caspase activation, % (test concentration not listed). actives 0.066% (n = 330,000). MEF A1-2A-BIM cells, Caspase-Glo 3/7 luminescence, 3 h; percent of clofoctol response, vehicle zero;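 active = over half of replicate activation scores above 10%, or exactly half above 10 with the replicate mean above 10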;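 also: wells of about 30 µL received 50 nL stock; many hits fall short of the cut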
LANA-H2B inh: blocks KSHV LANA binding to histone H2A/H2B. inhibition, % (concentration not given with the values). Q9QR71. actives 0.6% (n = 320,000). cell-free LANA-H2A/H2B peptide, fluorescence polarization; in the data active = inhibition mostly above about 10%, no sharp cut-off; inactive = mostly below about 6.7%;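 also: stock transfer was 7.5 nL into about 10 µL; 0% = median of vehicle wells and 100% = median of positive control wells; one replicate is shown; the record names a cut of 25% in any replicate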
T cruzi inh: T. cruzi replication inhibition | actives 1.4% (n = 300,000) | AID 1885 | inhibition, % (concentration not given with the values) | T. cruzi beta-gal in NIH3T3, luminescence, 90 h;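 active = mean inhibition across valid replicates above about 55%, limit read from the data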;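 also: signal also drops with host cell toxicity which is not excluded here; 0% = plate median of DMSO wells and 100% = zero luminescence signal; higher percent means less beta-gal luminescence so fewer parasites; stock transfer was 50 nL into about 50 µL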
ALR inh: inhibitors of human sulfhydryl oxidase ALR | purified ALR, DTT oxidation, H2O2 HRP-luminol luminescence | actives 3.8% (n = 290,000) | inhibition, % (concentration not given with the values);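 active = mean and each replicate at 75% or more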;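 also: stock transfer was 7.5 nL into about 7.5 µL; 0% = neutral wells and 100% = wells with inactivated enzyme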
Target sequence (P55789 whole entry, looked up): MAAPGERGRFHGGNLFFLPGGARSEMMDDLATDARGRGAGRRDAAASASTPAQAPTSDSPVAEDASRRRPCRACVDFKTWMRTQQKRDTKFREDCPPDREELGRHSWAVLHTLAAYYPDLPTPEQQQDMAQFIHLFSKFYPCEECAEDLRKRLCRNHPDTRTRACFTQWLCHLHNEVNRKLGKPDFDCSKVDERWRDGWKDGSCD
rRNA inh HTS: selective bacterial rRNA inhibition in E. coli; E. coli WT GFP vs humanized-ribosome RFP mutants, fluorescence, 24 h; active compounds read low; DMSO median 0, no signal -100; GFP signal change (wild-type ribosome), % (no concentration beside the values); actives 1.6% (n = 350,000); AID 720706;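 active = significant combined selectivity score with lowered wild-type GFP, culture density cut under 30%, mutant RFP and density less affected; inactive = any of these conditions unmet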; also: one replicate is shown; some compounds called inactive have numbers as strong as hits
rRNA inh HTS OD600: recorded beside rRNA inh HTS, whose call it bears; OD600 change, %; measured here: OD600 growth;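 optical density of the mix in the first replicate; 0 = DMSO median and -100 = no signal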
rRNA inh HTS RFP: also measured in rRNA inh HTS; calls as there; RFP signal change, %; measured here: RFP humanized mutant strains;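 first replicate; 0 = DMSO median and -100 = no signal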
Starred values were filed as active, the others as inactive; / = no result given. The list is partial; rates above refer to the full screens.

SMILES	Calb FLC	Beta cell apopt	B2AR ag	Bfl-1 A1 inh	LANA-H2B inh	T cruzi inh	ALR inh	rRNA inh HTS	rRNA inh HTS OD600	rRNA inh HTS RFP
CCCCOc1ccc(C(O)(CC)CCN2CCOCC2)cc1 (stereo not drawn)	-2	-13	-7	-0.9	1.5	-2	15	/	/	/
COc1ccc(CC(=O)c2ccc(OC)c(OC)c2C)cc1OC	8	5	-2	-0.3	-0.1	-13	-43	5	2	-3.2
CCN(C(=O)CN1CCC(C(=O)OC)CC1)c1c(N)n(Cc2ccccc2)c(=O)[nH]c1=O	/	0	0	2.0	-5.3	/	-1	14	14	0.3
COCCNC(=S)N/N=C/c1ccc2c(c1)OCCO2	-3	-1	-4	-0.4	1.0	-8	11	-4	-4	-3.5
Cc1c(C(=O)Nc2cccc(S(=O)(=O)N3CCOCC3)c2)oc2ccc(Br)cc12	/	4	1	0.4	-2.4	/	-12	3	1	1.5
O=C(CCS(=O)(=O)c1ccc(Br)cc1)N1CCN(c2ccccc2)CC1	/	-2	5	0.8	0.8	/	99*	/	/	/
S=c1[nH]nc(-c2cccs2)n1/N=C/c1cn(-c2ccccc2)nc1-c1cccs1	5	-4	-4	-4.2	0.9	2	-4	-3	-5	8.6
Cc1ccccc1OCCSc1nnc(C)n1-c1ccccc1	25	/	-1	0.6	-1.2	3	-8	/	/	/
Cc1ccc(C)c(N2CCN(C(=O)CSc3ccsc3[N+](=O)[O-])CC2)c1	-18	2	7	0.5	-5.4	3	5	/	/	/
CCCCn1c(N)c(N(CC)C(=O)CN2C(=O)NC(C)(c3ccccc3)C2=O)c(=O)[nH]c1=O (stereo not drawn)	22	0	1	1.4	3.5	-12	/	26	19	2.4
O=C(Nc1ccccc1C(=O)N1CCN(Cc2ccccc2)CC1)c1ccccc1	2	-9	-2	0.0	8.8	-2	0	1	7	1.6
COc1ccc(C(=O)c2c(C)oc3ccc(O)cc23)c(OC)c1	7	-4	4	0.8	-1.3	0	/	-2	-10	0.7
CCOc1ccccc1CNC(=O)Cn1c(=O)oc2ccccc21	-2	/	3	-0.4	2.9	-4	-3	2	2	0.2
Clc1nnc(N2CCCCC2)c2ccccc12	19	-9	0	0.5	5.3	14	98*	-10	-12	-4.4
Cc1ccccc1OCC1Cc2c(nc(N)c(C#N)c2N)O1 (stereo not drawn)	/	6	-1	1.3	0.5	/	-4	/	/	/
CN(CC(=O)Nc1ccc(F)c(F)c1F)C(=O)/C=C/c1ccc(Cl)cc1	-7	/	2	-0.1	0.8	-7	2	/	/	/
CCOC(=O)c1cc(C)sc1NC(=O)C1CCC1	1	-11	3	-0.3	0.6	5	0	/	/	/
Cc1ccc(NC(=S)NC2CC3CCCC(C2)N3Cc2cccs2)cc1 (stereo not drawn)	-8	-4	1	2.1	2.9	19	4	5	-5	-0.5
CCCCn1c(=O)[nH]c(=O)c2c1nc(-c1cccc(OC)c1)n2C	10	3	-3	-0.1	0.9	-14	-2	3	0	2.7
N#C/C(C(=O)N1CCCC1)=C1/N=C(N)c2ccccc21	-1	-10	2	0.9	4.2	-11	1	14	2	2.0
C/C(CC(C)(C)c1ccccc1)=N\NS(=O)(=O)c1ccccc1	-11	-1	3	-0.2	-2.3	9	2	3	-9	-2.6
CCOc1ccc(CCNC(=O)COC(=O)c2ccc(S(=O)(=O)N3CCCC3)cc2)cc1OCC	0	3	-4	0.3	-14	-4	-25	4	19	5.3
COC(=O)c1sccc1NC(=S)NCc1ccc(Cl)cc1	-2	-5	-6	0.0	-3.7	-8	5	-55	-80	-28
COC(=O)c1ccc(CNC(=O)COC(=O)C2CCC(C(C)(C)C)CC2)cc1 (stereo not drawn)	5	-2	0	-0.2	-7.3	-10	/	4	-9	-2.2
O=C(CCn1cnnn1)Nc1ccccc1F	-1	0	-1	0.3	-2.9	-10	-2	12	7	-2.4
Cc1ccc(S(=O)(=O)NCC2CCC(C(=O)O)CC2)cc1 (stereo not drawn)	4	-3	9	0.4	-0.7	-3	-2	/	/	/
CC(C)Cn1c(N)c(C(=O)COC(=O)c2ccccc2F)c(=O)n(C)c1=O	-11	3	-10	0.0	2.0	-9	0	-38	-33	-7.5
CNc1oc(-c2ccccc2F)nc1S(=O)(=O)c1ccc(C)cc1	6	/	2	1.0	-8.1	-6	-8	1	6	1.2
CCOc1ccc(C(=O)C(C)OC(=O)Cn2c(C)csc2=O)cc1 (stereo not drawn)	-2	0	-2	-0.3	1.1	-2	-4	6	-2	0.6
Cc1ccc(C#CC[N+]2(CC#Cc3ccc(C)cc3)CCCCC2)cc1	-1	113*	-1	0.9	4.7	74*	-34	-57	-77	-26
COc1cc(-c2noc(-c3cccc(Cl)c3)n2)cc(OC)c1OC	-4	-4	-4	0.5	0.8	-7	-4	/	/	/
COC(=O)[C@H](C)[C@H]1C[C@]1(C)[C@H](NC(=O)OCc1ccccc1)c1ccccc1	-2	-1	-3	0.2	-3.4	-10	2	/	/	/
O=C(c1cccs1)N(Cc1ccccn1)Cc1ccco1	23	3	10	0.2	-2.1	3	-3	/	/	/
O=C(COc1ccc2c3c(c(=O)oc2c1)CCC3)N[C@@H](Cc1ccccc1)C(=O)O	-2	-8	-2	0.4	0.2	-14	-9	/	/	/
CCOC(=O)Cc1csc(NS(=O)(=O)c2ccc(SC)cc2)n1	0	-4	-1	-0.7	-0.7	-2	-2	-13	-15	-3.3
COc1ccc(CC(=O)N[C@@H](CCSC)C(=O)N2CCC3(CC2)NCCc2[nH]cnc23)cc1	-5	-5	-1	0.7	8.6	-15	-29	3	-9	0.3
CCn1nc(C(=O)OCC(=O)c2ccc(F)cc2)c2ccccc2c1=O	2	-3	-3	0.7	4.7	-3	/	5	1	1.6
Cc1ccc(S(=O)(=O)NNC(=O)c2ccc(O)cc2)cc1	4	-7	-1	0.0	1.0	-1	97*	10	-9	-1.1
FC(F)(F)c1cccc(Cc2noc(CN3CCC(N4CCCCC4)CC3)n2)c1	-3	0	-1	1.3	-4.7	13	-7	6	5	2.9
Clc1ccc2c(N/N=C/c3ccccc3Br)ccnc2c1	-5	43	42*	-0.1	4.5	55*	-1	15	19	3.5
COc1ccccc1NC(=O)CSc1ccc2nnc(-c3ccncc3)n2n1	-3	-3	-7	0.4	2.0	15	-5	-1	-2	-1.9
Cc1ccc(S(=O)(=O)C2(S(=O)(=O)c3ccc(C)cc3)CC2)cc1	-5	-3	-2	-0.8	-8.4	12	/	-11	-12	2.7
COc1ccc(C(=O)Cn2cc([N+](=O)[O-])nc2C)cc1	-4	/	7	-0.5	5.3	-7	/	5	9	-0.5
Cn1c(N)c(C(=O)N/N=C/c2ccccc2)sc1=S	-4	-4	9	-0.7	9.1	-18	22	-36*	-7.6*	-2.2*
CCOC(=O)c1c2c3c(cccc3[nH]c1=O)C(=O)c1ccccc1-2	8	0	16	0.5	-0.4	-20	-1	22	14	7.3
O=[N+]([O-])c1ccc(O)c(C=Nc2cccc3ncccc23)c1	24	2	11	-1.3	0.9	-14	33	5	14	2.0
O=C(O)c1ccc(/C=C/c2nc3ccccc3c(=O)[nH]2)cc1	/	0	9	-7.2	-2.1	-4	40	14	12	-3.2
COc1ccc(Cc2nnc(SCc3nc4ccccc4c(=O)[nH]3)o2)cc1	34	/	0	0.5	-1.8	1	-8	8	6	-1.5
O=C(CNC(=O)c1ccccc1Cl)NCC(c1cccs1)N1CCOCC1 (stereo not drawn)	0	6	-5	0.4	1.5	0	-4	7	4	-0.6
COc1ccccc1Oc1ccccc1[N+](=O)[O-]	-4	/	-6	-0.7	-4.1	-19	0	5	8	-3.6
COc1ccc(C(=O)Nc2cc(Cl)ccc2OC(=O)c2ccc(OC)cc2)cc1	-3	0	0	-7.2	-3.9	-18	-2	/	/	/
N/C(=N\OC(=O)CCC1CCCC1)c1ccncc1	-3	-8	5	0.1	-0.1	-12	-5	12	2	0.6

Grouped by structure: the entries above with an NH in an aromatic ring
SMILES	Calb FLC	Beta cell apopt	B2AR ag	Bfl-1 A1 inh	LANA-H2B inh	T cruzi inh	ALR inh	rRNA inh HTS	rRNA inh HTS OD600	rRNA inh HTS RFP
CCN(C(=O)CN1CCC(C(=O)OC)CC1)c1c(N)n(Cc2ccccc2)c(=O)[nH]c1=O	/	0	0	2.0	-5.3	/	-1	14	14	0.3
S=c1[nH]nc(-c2cccs2)n1/N=C/c1cn(-c2ccccc2)nc1-c1cccs1	5	-4	-4	-4.2	0.9	2	-4	-3	-5	8.6
CCCCn1c(N)c(N(CC)C(=O)CN2C(=O)NC(C)(c3ccccc3)C2=O)c(=O)[nH]c1=O (stereo not drawn)	22	0	1	1.4	3.5	-12	/	26	19	2.4
CCCCn1c(=O)[nH]c(=O)c2c1nc(-c1cccc(OC)c1)n2C	10	3	-3	-0.1	0.9	-14	-2	3	0	2.7
COc1ccc(CC(=O)N[C@@H](CCSC)C(=O)N2CCC3(CC2)NCCc2[nH]cnc23)cc1	-5	-5	-1	0.7	8.6	-15	-29	3	-9	0.3
CCOC(=O)c1c2c3c(cccc3[nH]c1=O)C(=O)c1ccccc1-2	8	0	16	0.5	-0.4	-20	-1	22	14	7.3
O=C(O)c1ccc(/C=C/c2nc3ccccc3c(=O)[nH]2)cc1	/	0	9	-7.2	-2.1	-4	40	14	12	-3.2
COc1ccc(Cc2nnc(SCc3nc4ccccc4c(=O)[nH]3)o2)cc1	34	/	0	0.5	-1.8	1	-8	8	6	-1.5
